ID4 binder: binders of human ID4 protein, primary screen, biochemical, small molecule microarray, single point; 31,000 compounds, 1.2% hits; calls only; DNA-binding protein inhibitor ID-4 (Homo sapiens), P47928; Flag-ID4 binding, fluorescence F/B;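 active = spot signal over background at p below 0.07 in all four prints; compounds were printed on slides so no solution concentration is given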;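 note: a binder raises fluorescence above local background on the spot; about 2 pmol printed per array spot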
Target sequence (P47928 whole entry, looked up): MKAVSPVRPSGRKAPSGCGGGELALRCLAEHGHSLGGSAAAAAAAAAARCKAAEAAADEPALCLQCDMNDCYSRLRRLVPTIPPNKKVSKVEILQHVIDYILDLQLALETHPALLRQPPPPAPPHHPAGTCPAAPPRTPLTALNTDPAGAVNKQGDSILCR
Calls only; i = inactive; + = active, no number.

Start of the listing, in advance, 3 compounds:
SMILES	ID4 binder
COc1cccc(/C=N/c2c(-c3ccccc3)c(C(F)(F)F)nn2C)c1OC	i
C[C@H]1CN([C@@H](C)CO)C(=O)c2cc(-c3ccccc3F)cnc2O[C@H]1CN(C)Cc1ccc(F)cc1	i
COc1cc(C(=O)OCc2ccc(-c3cccc(Cl)c3Cl)o2)cc(OC)c1OC	i

This part in full, from the first entry:
SMILES	ID4 binder
COc1cccc(/C=N/c2c(-c3ccccc3)c(C(F)(F)F)nn2C)c1OC	i
C[C@H]1CN([C@@H](C)CO)C(=O)c2cc(-c3ccccc3F)cnc2O[C@H]1CN(C)Cc1ccc(F)cc1	i
COc1cc(C(=O)OCc2ccc(-c3cccc(Cl)c3Cl)o2)cc(OC)c1OC	i
C[C@@H]1CN([C@H](C)CO)C(=O)c2cc(-c3ccccc3F)cnc2O[C@@H]1CN(C)Cc1ccc(F)cc1	i
NC(=S)c1cc(-c2ccccc2)c(C(F)(F)F)s1	i
Cc1nc(SCC(=O)Nc2ccccc2[N+](=O)[O-])c2c(C)c(C)sc2n1	i
COc1ccc(CCNC(=O)c2ccc(-c3cccc([N+](=O)[O-])c3)o2)cc1OC	i
COc1ccc(S(=O)(=O)N(C)CC(=O)Nc2cccc(SC)c2)cc1C	i
C[C@H]1CN([C@@H](C)CO)S(=O)(=O)c2ccc(C#Cc3cccc(F)c3)cc2O[C@@H]1CN(C)C	i
CN1CCN(C(=O)C[C@@H]2CC[C@@H](NC(=O)c3ccc4c(c3)OCO4)[C@@H](CO)O2)CC1	i
COc1ccccc1-c1ccc2c(c1)O[C@@H](CN(C)C(=O)Nc1ccccc1)[C@H](C)CN([C@H](C)CO)S2(=O)=O	i
CC1Sc2ccc(Cl)cc2C(=O)/C1=C/N(C)C (stereo not drawn)	i
O=C(Nc1ccc2c(c1)[C@H]1C[C@@H](CC(=O)N3CCc4ccccc4C3)O[C@H](CO)[C@H]1O2)C1CCC1	i
C[C@H]1CN([C@@H](C)CO)C(=O)c2cc(C3=CCCC3)cnc2O[C@H]1CN(C)Cc1ccccc1F	i
C[C@@H]1CN([C@@H](C)CO)C(=O)Cc2cc(N(C)C)ccc2O[C@H]1CN(C)Cc1ccc2c(c1)OCO2	i
CN1CCN(CC(=O)Nc2sc3c(c2C(=O)Nc2ccccc2)CCCC3)CC1	i
CN(c1ccccc1C(=O)NCC1CCCO1)S(C)(=O)=O (stereo not drawn)	i
COc1ccc(N(C(C)C(=O)Nc2cc(Cl)ccc2C)S(C)(=O)=O)cc1 (stereo not drawn)	i
C/C=C(/C)C(=O)O[C@H]1CC(C)(C)C[C@H]2C3=CCC4[C@@]5(C)CC[C@H](O[C@@H]6O[C@H](C(=O)O)[C@@H](O[C@@H]7O[C@H](CO)[C@H](O)[C@H](O)[C@H]7O[C@@H]7O[C@H](CO)[C@@H](O)[C@H](O)[C@H]7O)[C@H](O)[C@H]6O[C@@H]6O[C@@H](C)[C@H](O)[C@@H](O)[C@H]6O)C(C)(C)C5CC[C@@]4(C)[C@]3(C)[C@@H](OC(C)=O)[C@@H](O)[C@@]12COC(C)=O (stereo partly drawn)	i
Cc1ccc(NC(=O)CSc2n[nH]c(-c3ccccc3Cl)n2)cc1C	i
C[C@H](CO)N1C[C@H](C)[C@@H](CN(C)CC2CC2)OCc2cnnn2CCCC1=O	i
O=C(Nc1ccc(I)cc1C(=O)NCC1CCCO1)c1ccco1 (stereo not drawn)	i
N#Cc1c(NC(=O)Cn2c(=O)oc3cc(Br)ccc32)sc2c1CCCC2	i
COc1ccc(S(=O)(=O)N(C)CC(=O)Nc2cccc(C(F)(F)F)c2)cc1C	i
C[C@H](CO)N1C[C@H](C)[C@@H](CN(C)Cc2cccc(F)c2)Oc2ncc(C3=CCCCC3)cc2C1=O	i
C[C@@H]1CN([C@H](C)CO)S(=O)(=O)c2ccc(-c3cccc(F)c3)cc2O[C@@H]1CN(C)CC1CC1	i
CC(=O)N[C@@H]1CC[C@H](CC(=O)NCc2ccc(Cl)cc2)O[C@@H]1CO	i
CCCC#Cc1cnc2c(c1)C(=O)N([C@@H](C)CO)C[C@@H](C)[C@@H](CN(C)C(=O)C1CCCCC1)O2	i
CC1(C)CC[C@]2(C(=O)O)CC[C@]3(C)C(=CCC4[C@@]5(C)C[C@@H](O)[C@H](O)[C@](C)(CO)C5CC[C@]43C)[C@@H]2[C@@H]1O (stereo partly drawn)	i
C[C@H](CO)N1C[C@H](C)[C@H](CN(C)C(=O)Nc2ccc(C(F)(F)F)cc2)Oc2ncc(-c3cccnc3)cc2C1=O	i
Cc1ccccc1NC(=O)CCc1nc(-c2ccccc2F)no1	i
C[C@H]1CN([C@@H](C)CO)S(=O)(=O)c2ccc(/C=C/c3ccccc3)cc2O[C@H]1CN(C)C(=O)CN1CCOCC1	i
COc1ccc(C2CC(=O)c3c(O)cc(O[C@@H]4O[C@H](CO)[C@@H](OC5OCC(O)(CO)C5O)[C@H](O)[C@H]4O)cc3O2)cc1 (stereo partly drawn)	i
Cn1cnc(S(=O)(=O)N[C@H]2C=C[C@H](CC(=O)NCC3CCCCC3)O[C@H]2CO)c1	i
C[C@H](CO)N1C[C@H](C)[C@@H](CN(C)C(=O)CC2CC2)Oc2ncc(C#CC3CC3)cc2C1=O	i
Cc1nn(CC(=O)NCc2ccccn2)c(C)c1[N+](=O)[O-]	i
O=C(C[C@H]1CC[C@@H](NC(=O)NC2CCCCC2)[C@@H](CO)O1)NCc1ccccc1	i
C[C@H](CO)N1C[C@H](C)[C@H](CN(C)C(=O)C2CC2)Oc2ncc(C#CC(C)(C)O)cc2C1=O	i
C[C@@H]1CN([C@H](C)CO)C(=O)c2cc(C#Cc3ccccc3)cnc2O[C@H]1CN(C)C(=O)c1ccccc1	i
CCCN(C)C[C@@H]1OCCCC[C@H](C)Oc2ccc(N(C)C)cc2C(=O)N([C@H](C)CO)C[C@@H]1C	i
COc1ccc(C)cc1S(=O)(=O)NCc1ccncc1	i
Cc1nc(-c2ccccc2)sc1-c1nnc(-c2cccc3ccccc23)o1	i
CC(C)(C)c1cc(C(F)(F)F)c(C#N)c(SCC(=O)Nc2sc3c(c2C#N)CCCC3)n1	i
C[C@H]1CN([C@@H](C)CO)C(=O)c2cc(Br)cnc2O[C@@H]1CN(C)C(=O)CN(C)C	i
COC(=O)C[C@@H]1C=C[C@H](NC(=O)c2ccccc2)[C@H](CO)O1	i
O=C1CC(c2ccc(O)cc2)Oc2cc(O)cc(O)c21 (stereo not drawn)	i
COCCN=c1c([N+](=O)[O-])nn(-c2ccccc2)n1O	i
C[C@@H](NC(=O)C[C@@H]1C=C[C@@H](NC(=O)C2CCC2)[C@@H](CO)O1)c1ccccc1	i
C[C@H]1CN([C@@H](C)CO)S(=O)(=O)c2ccc(-c3ccccc3)cc2O[C@H]1CN(C)C	i
C[C@H](CO)N1C[C@H](C)[C@H](CN(C)Cc2ccccc2)OCc2ccccc2-c2ccccc2C1=O	i
CCNC(=O)C[C@@H]1CC[C@@H](NC(=O)C2CC2)[C@H](CO)O1	i
C[C@@H]1CN([C@H](C)CO)C(=O)c2cc(C#CC3CCCCC3)cnc2O[C@H]1CN(C)C(=O)Nc1ccccc1	i
COCC(=O)N(C)C[C@H]1Oc2ncc(C#C[C@H](C)O)cc2C(=O)N([C@H](C)CO)C[C@H]1C	i
O=c1oc2ccccc2cc1O	i
COc1ccc(CNC(=O)C[C@@H]2CC[C@H](NC(=O)CN(C)C)[C@@H](CO)O2)cc1	i
CCCN(C)C[C@@H]1Oc2cc(-c3ccccc3C)ccc2S(=O)(=O)N([C@H](C)CO)C[C@@H]1C	i
CCCN(C)C[C@@H]1Oc2cc(C#CCc3ccccc3)ccc2S(=O)(=O)N([C@H](C)CO)C[C@@H]1C	i
CCN(CC)C(=O)CSc1ncnc2sc(C)c(C)c12	i
Brc1ccc2[nH]c3nc(SCCN4CCOCC4)nnc3c2c1	i
O=C(C[C@@H]1C=C[C@@H](NC(=O)c2ccc(F)cc2)[C@@H](CO)O1)NCCc1ccccc1	i

Sorted by formula weight (highest first): 7 of the compounds above
SMILES	ID4 binder
CC(C)(C)c1cc(C(F)(F)F)c(C#N)c(SCC(=O)Nc2sc3c(c2C#N)CCCC3)n1	i
C[C@H](CO)N1C[C@H](C)[C@H](CN(C)Cc2ccccc2)OCc2ccccc2-c2ccccc2C1=O	i
CCCN(C)C[C@@H]1Oc2cc(-c3ccccc3C)ccc2S(=O)(=O)N([C@H](C)CO)C[C@@H]1C	i
C[C@H]1CN([C@@H](C)CO)S(=O)(=O)c2ccc(-c3ccccc3)cc2O[C@H]1CN(C)C	i
Brc1ccc2[nH]c3nc(SCCN4CCOCC4)nnc3c2c1	i
COCCN=c1c([N+](=O)[O-])nn(-c2ccccc2)n1O	i
O=c1oc2ccccc2cc1O	i

Next section:
SMILES	ID4 binder
COc1ccc([C@@]2(O)c3c(ccc(/C=C/C4(C)CCC(C)(C)CO4)c3O)NC(=O)[C@@H]2OC)cc1 (stereo partly drawn)	i
C[C@@H]1CN([C@H](C)CO)C(=O)c2cc(C#CC3(O)CCCC3)cnc2O[C@H]1CN(C)Cc1ccccc1	i
CN1C2CCC1/C(=C\c1ccccc1)C(=O)/C2=C\c1ccccc1	i
CCC(=O)N(C)C[C@@H]1Oc2cc(C#CC3CC3)ccc2S(=O)(=O)N([C@@H](C)CO)C[C@H]1C	+
CC(=O)c1cccc(NC(=O)C2CCCN(S(=O)(=O)c3ccc(Cl)cc3)C2)c1 (stereo not drawn)	i
O=C(COc1ccc(Br)cc1)Nc1cccc(-c2nc3cc(Cl)ccc3o2)c1	i
C[C@H](CO)N1C[C@H](C)[C@H](CN(C)C)Oc2cc(C#CC3CC3)ccc2S1(=O)=O	i
O=[N+]([O-])c1cccc(COc2ccc(-c3cnc4ccccc4n3)cc2)c1	i
CC(Oc1ccc(Cl)cc1Cl)C(=O)Nc1ccc(Cl)c(-c2nc3ncccc3o2)c1 (stereo not drawn)	i
CC(=O)N(C)C[C@H]1Oc2ncc(-c3ccc(F)cc3)cc2C(=O)N([C@H](C)CO)C[C@H]1C	i
CCCN(C)C[C@@H]1Oc2cc(-c3ccccc3C)ccc2S(=O)(=O)N([C@@H](C)CO)C[C@H]1C	i
C[C@H](CO)N1C[C@H](C)[C@@H](CN(C)C(=O)c2ccccc2)Oc2ncc(-c3ccc(C#N)cc3)cc2C1=O	i
Cc1nc(SCC(=O)Nc2cc(C(F)(F)F)ccc2Cl)nc2c1CCCC2	i
COc1cc(S(=O)(=O)NCCCN2CCOCC2)ccc1Cl	i
CCC(=O)Nc1ccc(Cl)c(NC(=O)COc2cccc3ccccc23)c1	i
C(=C\c1nn2c(C3COc4ccccc4O3)nnc2s1)/c1ccccc1 (stereo not drawn)	i
C[C@@H]1CN([C@H](C)CO)C(=O)c2cc(-c3cccnc3)cnc2O[C@H]1CN(C)C(=O)Nc1ccc(C(F)(F)F)cc1	i
COc1cccc(-c2ccc3c(c2)O[C@H](CN(C)C)[C@H](C)CN([C@H](C)CO)S3(=O)=O)c1	i
COC(=O)N(C)C[C@@H]1OCc2ccccc2-c2c(n(C)c3ccccc23)C(=O)N([C@H](C)CO)C[C@H]1C	i
O=C(O)c1cc2cc(Cc3cccnc3)ccc2o1	i
Cc1ccc(N(C(C)C(=O)Nc2cccc(Cl)c2C)S(C)(=O)=O)cc1C (stereo not drawn)	i
C[C@H](CO)N1C[C@H](C)[C@H](CN(C)Cc2ccccn2)Oc2ncc(Br)cc2C1=O	i
CO[C@@H]1CN(C)C(=O)c2cc(NC(=O)C3CCC3)ccc2OC[C@@H](C)N(C)C[C@H]1C	i
Cc1ccc(-c2noc(CN(C(=O)c3ccc([N+](=O)[O-])cc3)C(C)C)n2)cc1	i
Brc1c(Br)c(Br)c2n[nH]nc2c1Br	i
O=[N+]([O-])c1ccccc1S(=O)(=O)NCCOc1ccc(Cl)cc1	i
Cc1c(C(=O)Nc2nnc(SCc3ccccc3F)s2)oc2ccccc12	i
C[C@H]1CN([C@@H](C)CO)S(=O)(=O)c2ccc(-c3ccc(F)cc3)cc2O[C@@H]1CN(C)C	i
COC(=O)c1ccc(NC(=O)CN2CCC(C(N)=O)(N3CCCCC3)CC2)cc1	i
COc1ccc([N+](=O)[O-])cc1NC(=O)CN(c1ccc(Cl)cc1C)S(C)(=O)=O	i
Cc1sc2ncn(CC(=O)Nc3ccc(F)c(Cl)c3)c(=O)c2c1C	i
O=C(Nc1ccc(Oc2ccccc2)cc1)C1CC(=O)n2ncnc2N1 (stereo not drawn)	i
CCc1ccc2[nH]c3nc(C)cc(C)c3c(=O)c2c1	i
C[C@H]1CN([C@@H](C)CO)C(=O)c2cccc(N(C)C)c2O[C@@H]1CN(C)Cc1ccc2c(c1)OCO2	i
C[C@H](CO)N1C[C@H](C)[C@@H](CN(C)C(=O)NC2CCCCC2)Oc2ccc(N(C)C)cc2CC1=O	i
Nc1nc(SCC(=O)Nc2ccc(Br)cc2Cl)n[nH]1	i
O=C(O)C1OC(c2cccc(Cl)c2)=NC12CC2 (stereo not drawn)	i
CC(=O)c1cccc(NC(=O)C(Cc2ccccc2)N2C(=O)c3ccccc3C2=O)c1 (stereo not drawn)	i
Cc1cccc(CN(C)C[C@@H]2Oc3ncc(C#CCN(C)C)cc3C(=O)N([C@H](C)CO)C[C@@H]2C)c1	i
CC(C)(C)C(=O)Nc1nc(NC(=O)C(C)(C)C)nc(-c2ccccc2Cl)n1	i
COC(=O)c1ccccc1NC(=O)c1ccc(F)cc1	i
Cc1nnc(SCC(=O)c2c(C)[nH]c3ccccc23)s1	i
C[C@H](NC(=O)C[C@@H]1C[C@@H]2c3cc(N(C)C)ccc3O[C@@H]2[C@H](CO)O1)c1ccccc1	i
CNC[C@H]1Oc2ncc(C#CCC3CCCC3)cc2C(=O)N([C@@H](C)CO)C[C@H]1C	i

Some of the compounds tested. The share of hits here may be higher or lower than overall.
